High-throughput results (PubChem)
NOMO-1 viab = STK33 inhibitor candidate reducing NOMO-1 cell viability; inhibition, % (concentration not given with the values); NOMO-1 AML viability, CellTiter-Glo luminescence, 72 h; 37,000 compounds, 7.5% hits;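 active = most replicates above 80%; inconclusive = exactly half above 80%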;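 also: wells of about 30 µL received 25 nL stock; 0% = median of vehicle wells and 100% = reference inhibitor level; the first replicate is given; inactives centre near 10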
The depositor's hits bear a star; ? = inconclusive.

SMILES	NOMO-1 viab
O=C(COC(=O)C1CC=CCC1C(=O)OCC(=O)c1ccc(Cl)cc1)c1ccc(Cl)cc1 (stereo unspecified)	44.6
Cc1cc(C)cc(N(C(C)C(=O)Nc2cccc(Br)c2)S(C)(=O)=O)c1 (stereo unspecified)	23.8
C[C@@H]1CCCCO[C@H](CN(C)Cc2ccc(Cl)c(Cl)c2)[C@@H](C)CN([C@H](C)CO)C(=O)c2cc(NS(C)(=O)=O)ccc2O1	35.1
C[C@@H]1CN([C@@H](C)CO)C(=O)Cc2cc(NC(=O)Nc3ccc(F)cc3)ccc2O[C@@H]1CN(C)C(=O)Nc1ccc(C(F)(F)F)cc1	32.8
C[C@H](CO)N1C[C@H](C)[C@H](CN(C)Cc2ccc3c(c2)OCO3)Oc2c(NC(=O)Nc3ccc4c(c3)OCO4)cccc2C1=O	?
C[C@@H]1CN([C@@H](C)CO)C(=O)c2cc(NS(=O)(=O)c3ccc(F)cc3)ccc2O[C@@H]1CN(C)Cc1ccc2c(c1)OCO2	26.3
OC(COc1ccc2ccccc2c1Br)Cn1cnc(-c2ccccc2)c1 (stereo unspecified)	-19.9
COc1ccc(CN(C)C[C@H]2Oc3ccc(NS(=O)(=O)c4ccc(Cl)cc4)cc3C(=O)N([C@H](C)CO)C[C@H]2C)cc1	17.4
CC(C)(C)c1ccc(OCC(=O)Nc2ccccc2-c2nc3ccccc3s2)cc1	4.7
COC(=O)c1c(C)oc2cc(Br)c(OCC(=O)c3ccc(F)cc3)cc12	11.6
Cc1ccc(S(=O)(=O)N(C)C[C@@H]2Oc3ccc(NC(=O)CCCN(C)C)cc3C(=O)N([C@H](C)CO)C[C@H]2C)cc1	7.2
Cc1ccc(SCC(=O)c2ccc(CC(=O)O)s2)cc1	29.0
Cc1noc(C)c1S(=O)(=O)Nc1ccc2c(c1)C(=O)N([C@H](C)CO)C[C@@H](C)[C@H](CN(C)S(=O)(=O)c1ccc(Cl)cc1)O2	1.1
COc1ccc(S(=O)(=O)N(C)C[C@@H]2Oc3ccc(NC(=O)Nc4cccc5ccccc45)cc3C(=O)N([C@H](C)CO)C[C@H]2C)cc1	-18.5
C[C@H](CO)N1C[C@H](C)[C@H](CN(C)Cc2ccc(-c3ccccc3)cc2)Oc2ccc(NC(=O)C3CCCCC3)cc2C1=O	64.3
C[C@H]1CN([C@@H](C)CO)C(=O)c2cc(NC(=O)c3ccncc3)ccc2O[C@@H]1CN(C)C(=O)Nc1ccc2c(c1)OCO2	-12.8
C[C@H]1CN([C@@H](C)CO)C(=O)Cc2cc(NC(=O)Cc3cn(C)c4ccccc34)ccc2O[C@@H]1CN(C)C(=O)Nc1ccc(C(F)(F)F)cc1	10.5
Clc1ccc(-c2ncc3ccccn23)cc1	129.2*
C[C@H](CO)N1C[C@H](C)[C@H](CN(C)Cc2ccc3c(c2)OCO3)Oc2ccc(NC(=O)C3CC3)cc2CC1=O	16.4
CCCCC1(CO)C(=O)N(c2ccccc2)N(c2ccccc2)C1=O	29.9
C[C@@H]1CN([C@H](C)CO)C(=O)c2cccc(NC(=O)Nc3ccc4c(c3)OCO4)c2O[C@H]1CN(C)Cc1ccc(C(=O)O)cc1	-16.7
COc1ccc(NC(=O)Nc2cccc3c2O[C@H](CN(C)S(=O)(=O)c2ccc(Cl)cc2)[C@H](C)CN([C@H](C)CO)C3=O)cc1	20.8
C[C@H](CO)N1C[C@H](C)[C@H](CN(C)S(=O)(=O)c2ccc(F)cc2)Oc2c(NS(=O)(=O)c3ccc(F)cc3)cccc2C1=O	17.2
C[C@@H]1CCCCO[C@H](CN(C)Cc2ccc(Cl)c(Cl)c2)[C@@H](C)CN([C@H](C)CO)C(=O)c2cc(NS(=O)(=O)c3ccc(Cl)cc3)ccc2O1	115.8*
O=C(CSc1nc2ccccc2[nH]1)Nc1cccc(Cl)c1Cl	-2.8
C[C@@H]1CCCCO[C@@H](CN(C)Cc2ccc(C(=O)O)cc2)[C@@H](C)CN([C@H](C)CO)C(=O)c2cc(NC(=O)Cc3ccccc3)ccc2O1	-13.5
N#Cc1cnc(SCC(=O)Nc2ccccc2F)nc1N	-3.6
COC(=O)C1=C(C)Nc2ncnn2C1c1ccccc1[N+](=O)[O-] (stereo unspecified)	-2.8
Cn1ccnc1SCC(=O)Nc1cccc(F)c1	5.4
COc1ccc(NC(=O)Nc2cccc3c2O[C@@H](CN(C)C(=O)Nc2cccc4ccccc24)[C@@H](C)CN([C@H](C)CO)C3=O)cc1	14.8
COc1ccccc1CC(=O)Nc1ccc(-c2nnc(-c3ccc(C)cc3)o2)cc1	?
C[C@H]1CN([C@@H](C)CO)C(=O)Cc2cc(NC(=O)Cn3cnnn3)ccc2O[C@@H]1CN(C)Cc1ccc(Cl)c(Cl)c1	-1.2
COC(=O)c1ccccc1-n1c(CCC(=O)O)ccc1-c1ccccc1	18.9
CCOC(=O)c1cnc(Nc2nc3ccccc3s2)nc1CSc1nnc(C)s1	3.8
COc1ccc(NC(=O)CN(c2cc(Cl)cc(Cl)c2)S(C)(=O)=O)cc1OC	-1.6
Cc1ccc(C(=O)CC2(O)C(=O)N(Cc3cccc4ccccc34)c3ccccc32)cc1 (stereo unspecified)	32.2
CC(C)NC(=O)Nc1ccc2c(c1)C(=O)N([C@H](C)CO)C[C@H](C)[C@H](CN(C)C(=O)Nc1ccc(F)cc1)O2	19.3
Cc1sc(NC(=O)c2ccccc2)c(C(=O)N2CCCCC2)c1C	19.2
C[C@H](CO)N1C[C@H](C)[C@@H](CN(C)Cc2ccc(C(=O)O)cc2)Oc2c(NC(=O)Nc3ccccc3)cccc2C1=O	-27.6
Cc1ccc2c(c1)c1nnc(SCCN3CCOCC3)nc1n2Cc1ccccc1	42.1

As entered above.
Cc1noc(C)c1S(=O)(=O)Nc1ccc2c(c1)C(=O)N([C@H](C)CO)C[C@@H](C)[C@H](CN(C)S(=O)(=O)c1ccc(Cl)cc1)O2 | NOMO-1 viab: 1.1
CCCCC1(CO)C(=O)N(c2ccccc2)N(c2ccccc2)C1=O | NOMO-1 viab: 29.9
Cn1ccnc1SCC(=O)Nc1cccc(F)c1 | NOMO-1 viab: 5.4

(next part)
SMILES	NOMO-1 viab
C[C@@H]1CN([C@@H](C)CO)C(=O)c2cccc(NC(=O)CCCCCC(=O)Nc3ccccc3N)c2O[C@H]1CN(C)S(=O)(=O)c1ccc(F)cc1	28.8
C[C@@H]1CN([C@H](C)CO)C(=O)c2cccc(NC(=O)c3cnccn3)c2O[C@H]1CN(C)CC1CC1	13.1
COc1ccccc1NC(=O)Cn1cncc1-c1ccc([N+](=O)[O-])cc1	17.8
C[C@H]1CN([C@@H](C)CO)C(=O)c2cc(NC(=O)Nc3ccc(F)cc3)ccc2O[C@H]1CN(C)Cc1ccc(C(=O)Nc2ccccc2N)cc1	?
Cc1cc(OCC(=O)Nc2ccccc2C(N)=O)ccc1Br	-8.6
C[C@@H]1CN([C@@H](C)CO)C(=O)Cc2cc(NC(=O)CCC(F)(F)F)ccc2O[C@@H]1CN(C)C(=O)Nc1cccc2ccccc12	-20.4
Cc1ccc(NC(=O)CN(c2ccc(F)c(Cl)c2)S(C)(=O)=O)cc1	9.3
COC(=O)C1=CN(c2cccc(C(F)(F)F)c2)C=C(C(=O)OC)C1c1ccsc1	18.1
C[C@@H]1CN([C@H](C)CO)C(=O)c2cc(NC(=O)CCC(F)(F)F)ccc2O[C@@H]1CN(C)S(C)(=O)=O	-5.6
Cc1cccc(-c2nnc(SCC(=O)Nc3cc([N+](=O)[O-])ccc3C)n2-c2ccccc2)c1	36.9
O=[N+]([O-])c1cccc(-c2nn(-c3ccccc3)cc2CNCc2ccccc2)c1	93.4*
C[C@H]1CN([C@@H](C)CO)C(=O)c2cc(NC(=O)CCN3CCOCC3)ccc2O[C@H]1CN(C)S(=O)(=O)c1cccs1	15.2
COCCNC(=O)c1ccccc1-c1nc(-c2ccc(Cl)cc2)no1	36.8
C[C@H]1CN([C@@H](C)CO)C(=O)Cc2cc(NC(=O)c3ccncc3)ccc2O[C@@H]1CN(C)C(=O)Nc1cccc2ccccc12	-0.8
CS(=O)(=O)N(CC(=O)Nc1ccc2c(c1)OCCO2)C1CCCCC1	-0.2
C[C@H](CO)N1C[C@H](C)[C@@H](CN(C)S(=O)(=O)c2ccc(Cl)cc2)Oc2ccc(NC(=O)Cc3ccccc3)cc2C1=O	25.6
Cn1c(=O)c2c(nc(NCC3CCCO3)n2Cc2cccc(Br)c2)n(C)c1=O (stereo unspecified)	16.1
C[C@@H]1CN([C@H](C)CO)C(=O)Cc2cc(NC(=O)Nc3ccc4c(c3)OCO4)ccc2O[C@@H]1CN(C)C(=O)Nc1cccc2ccccc12	7.7
C[C@@H]1CN([C@@H](C)CO)C(=O)c2cc(NC(=O)Cc3ccccc3)ccc2O[C@H]1CN(C)C(=O)Nc1cccc2ccccc12	2.3
C[C@H]1CN([C@@H](C)CO)C(=O)c2cc(NC(=O)CCCN(C)C)ccc2O[C@@H]1CN(C)C(=O)Nc1cccc2ccccc12	20.0
c1ccc2[nH]c(NCCN3CCOCC3)nc2c1	-5.9
CCOC(=O)c1c(NC(=O)CSc2nnc3ccc4ccccc4n23)sc(C)c1C	10.8
COc1ccc(S(=O)(=O)N(C)C[C@@H]2Oc3ccc(NC(=O)Nc4ccc(F)cc4)cc3CC(=O)N([C@H](C)CO)C[C@@H]2C)cc1	32.6
Cc1noc(C)c1NC(=O)Nc1ccc2c(c1)C(=O)N([C@@H](C)CO)C[C@@H](C)[C@H](CN(C)C(=O)NC(C)C)O2	-17.4
COc1cccc2cc(C(=O)C3C(=O)C(=O)N(CCN4CCOCC4)C3c3ccc(F)cc3)oc12 (stereo unspecified)	-8.3
COc1cc(C2NC(=S)NC(C)=C2C(=O)Nc2ccccc2C)c(Br)cc1OCC(=O)O (stereo unspecified)	15.4
Cc1noc(C)c1NC(=O)N(C)C[C@H]1Oc2ccc(NC(=O)Nc3ccc(F)cc3)cc2C(=O)N([C@H](C)CO)C[C@@H]1C	5.6
COc1ccc(NC(=O)N(C)C[C@H]2Oc3ccc(NC(=O)c4ccncc4)cc3C(=O)N([C@@H](C)CO)C[C@H]2C)cc1	16.0
C[C@H]1CN([C@@H](C)CO)C(=O)Cc2cc(NC(=O)CCN3CCOCC3)ccc2O[C@@H]1CN(C)Cc1ccc(C(=O)Nc2ccccc2N)cc1	4.3
CCNC(=O)c1c(NC(=O)C(C)Oc2ccccc2F)sc2c1CCCC2 (stereo unspecified)	-22.9
C[C@@H]1CN([C@H](C)CO)C(=O)c2cccc(NC(=O)Nc3ccccc3)c2O[C@@H]1CN(C)S(C)(=O)=O	-6.7
C[C@@H]1CCCCO[C@H](CN(C)Cc2ccc(Cl)c(Cl)c2)[C@@H](C)CN([C@H](C)CO)C(=O)c2cc(NS(=O)(=O)c3cn(C)cn3)ccc2O1	27.2
COc1ccc(S(=O)(=O)N(C)C[C@H]2OCCCC[C@@H](C)Oc3ccc(NC(=O)C4CCCCC4)cc3C(=O)N([C@H](C)CO)C[C@@H]2C)cc1	0.9
C[C@H]1CN([C@@H](C)CO)C(=O)Cc2cc(NS(=O)(=O)c3ccc(F)cc3)ccc2O[C@@H]1CN(C)C(=O)Nc1ccc(F)cc1	-7.5
Cc1nnsc1C(=O)OCCN(C)c1ccc(C#N)cn1	11.0
Cc1ccc(S(=O)(=O)N(C)C[C@H]2Oc3ccc(NS(=O)(=O)c4ccc(F)cc4)cc3C(=O)N([C@@H](C)CO)C[C@@H]2C)cc1	33.1
Cc1noc(C)c1NC(=O)Nc1ccc2c(c1)CC(=O)N([C@@H](C)CO)C[C@@H](C)[C@@H](CN(C)Cc1ccc3c(c1)OCO3)O2	-4.1
C[C@H]1CN([C@@H](C)CO)C(=O)c2cc(NC(=O)CCCCCC(=O)Nc3ccccc3N)ccc2O[C@H]1CN(C)CC1CCCCC1	35.5
COc1ccc(NC(=O)N(C)C[C@H]2Oc3ccc(NC(=O)CCN4CCOCC4)cc3C(=O)N([C@@H](C)CO)C[C@@H]2C)cc1	-12.2
COc1ccc(S(=O)(=O)N(C)C[C@@H]2Oc3c(NC(=O)c4cnccn4)cccc3C(=O)N([C@H](C)CO)C[C@H]2C)cc1	-12.5

Given with bars between the fields: entries from further up.
structure | NOMO-1 viab
CCNC(=O)c1c(NC(=O)C(C)Oc2ccccc2F)sc2c1CCCC2 (stereo unspecified) | -22.9
C[C@@H]1CN([C@H](C)CO)C(=O)c2cccc(NC(=O)Nc3ccccc3)c2O[C@@H]1CN(C)S(C)(=O)=O | -6.7

Later entries:
SMILES	NOMO-1 viab
Cc1ccc(NC(=O)CN(C)S(=O)(=O)c2ccc(F)cc2)c(C)c1	-9.0
O=C(Cn1c(=O)n(-c2ccccc2)c(=O)c2cc(-c3ccccc3)sc21)c1cccs1	11.1
CC(C)(C)c1ccc(NC(=O)c2cnccn2)cc1	22.4
O=C(CSc1nnnn1-c1ccccc1)Nc1ccccc1C(=O)c1ccccc1	6.3
Cc1cccc(-c2nc3cc(NC(=O)COc4ccccc4)ccc3o2)c1	7.8
Cc1ccc(-c2ccc(CCC(=O)O)n2-c2ccc(C(N)=O)cc2)cc1	22.6
C[C@@H]1CN([C@H](C)CO)C(=O)Cc2cc(NS(=O)(=O)c3cn(C)cn3)ccc2O[C@@H]1CN(C)Cc1ccc(Oc2ccccc2)cc1	15.1
C[C@@H]1CN([C@@H](C)CO)C(=O)c2cccc(NC(=O)C3CCCCC3)c2O[C@@H]1CN(C)C(=O)Nc1ccc(C(F)(F)F)cc1	39.6

Already shown: 6 of the compounds above.
SMILES	NOMO-1 viab
CC(C)(C)c1ccc(NC(=O)c2cnccn2)cc1	22.4
O=C(CSc1nnnn1-c1ccccc1)Nc1ccccc1C(=O)c1ccccc1	6.3
Cc1cccc(-c2nc3cc(NC(=O)COc4ccccc4)ccc3o2)c1	7.8
Cc1ccc(-c2ccc(CCC(=O)O)n2-c2ccc(C(N)=O)cc2)cc1	22.6
C[C@@H]1CN([C@H](C)CO)C(=O)Cc2cc(NS(=O)(=O)c3cn(C)cn3)ccc2O[C@@H]1CN(C)Cc1ccc(Oc2ccccc2)cc1	15.1
C[C@@H]1CN([C@@H](C)CO)C(=O)c2cccc(NC(=O)C3CCCCC3)c2O[C@@H]1CN(C)C(=O)Nc1ccc(C(F)(F)F)cc1	39.6

A portion of the library; the hit share may differ from the screen's.
